Source: PubChem (National Center for Advancing Translational Sciences (NCATS))
NS1 function inh – blocks influenza NS1 protein function; AID 2326; S. cerevisiae slowed by influenza A NS1, growth recovery by OD600; Potency, µM (series often up to 46.1 µM), without a hit: at the top dose activity, positive = more growth; actives 0.4% (n = 270,000); further: actives are rising curves; nearly all actives have a fitted effect of over 50% in size
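Growth recovery, yeast-based: influenza A NS1 expressed in S. cerevisiae causes slow growth, and suppressors are detected by OD600. The parent strain without NS1 is used as positive control.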
RE007 growth inh – less growth of the S. pombe RE007 Vpr strain; S. pombe RE007 Vpr strain, BacTiter-Glo ATP luminescence, 24 h; control for the full effect not named in the record; Potency, µM (top dose mostly 92.2 µM), for inactives: top-dose activity change, negative = less growth; actives 0.21% (n = 360,000); active = well fitted falling curve with a large enough effect; inconclusive = small, poorly fitted or top-dose-only effect; inactive = no such curve, though single readings can be large or run the other way;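 further: on the % scale 0 is the no-effect control and ±100 the full control effect; nearly all actives have a fitted effect of over 50% in size; the assay follows cell death caused by Vpr and the record does not say whether a fall means rescue or toxicity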
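Fission yeast RE007 carrying one integrated HIV-1 vpr copy, seeded at OD 0.01 in PMG+AL medium with 23 nL pinned compound. Grown 24 h at 30 degrees; viability read by BacTiter-Glo luminescence after 5 min.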
Cruzain Triton – blocks cruzain activity in presence of Triton detergent; P25779; purified cruzain, Z-FR-AMC fluorescence, 0.01% Triton; Potency, µM, inactives show max response, negative = inhibition, most hits filed as inhibitors; actives 0.43% (n = 200,000); active means well fitted curve in the direction sought with a large enough effect; inconclusive means small, poorly fitted or top-dose-only effect, or another doubt; inactive means no such curve, though single readings can be large; an effect the other way counts as inactive or inconclusive;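 further: plate controls were neutral wells for no effect and buffer without enzyme for full effect; nearly all actives have a fitted effect of over 40% in size; top concentration of the series not given in the record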
Target sequence (P25779 123-467 limits assumed): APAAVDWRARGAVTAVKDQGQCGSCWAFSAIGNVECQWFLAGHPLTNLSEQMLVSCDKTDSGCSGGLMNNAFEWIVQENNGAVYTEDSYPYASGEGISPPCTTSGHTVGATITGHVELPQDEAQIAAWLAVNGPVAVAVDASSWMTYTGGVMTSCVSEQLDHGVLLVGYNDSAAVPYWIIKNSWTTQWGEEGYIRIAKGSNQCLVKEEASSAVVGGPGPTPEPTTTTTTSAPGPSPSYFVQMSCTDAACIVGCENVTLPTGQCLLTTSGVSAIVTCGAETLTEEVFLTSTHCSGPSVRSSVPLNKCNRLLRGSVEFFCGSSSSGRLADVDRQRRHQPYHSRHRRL
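Steps: dispense cruzain (1.5 nM final) in acetate buffer pH 5.5 with DTT and 0.01% Triton X-100; pin-transfer compounds; incubate 15 min RT; add Z-FR-AMC (2 uM final); read fluorescence every 30 s, using the 60 s intensity change.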
Marburg entry inh – Marburg virus entry inhibition; Marburg virus pseudotyped entry inhibition, cell reporter; control for the full effect not named in the record; about a third of the inactives were read at about 46 µM; Potency, µM (top dose mostly 37.8 µM), without a hit: top-dose activity change, negative = inhibition, usual class: inhibitors; actives 1.8% (n = 300,000); AID 540276; active = well fitted inhibition curve with a large enough effect; inconclusive = small, poorly fitted or top-dose-only effect, or effect the other way; inactive = flat fitted curve, though single readings scatter; tested in HEK293 cells; about a fifth of its hits are not listed in these tables; further: on the % scale 0 is the no-effect control and ±100 the full control effect; luciferase read-out
SARS PLP yeast – blocks SARS-CoV papain-like protease in a yeast assay; S. cerevisiae expressing SARS-CoV PLpro, growth rescue; control for the full effect not named in the record; Potency, µM (titrated, usually from 32.9 µM), without a hit: top-dose activity, positive = growth rescue; actives 0.19% (n = 330,000); AID 485353; further: 0% is about no effect; nearly all actives have a fitted effect of over 55% in size; growth read by luminescence after 48 h
Cruzain inh noDet – blocks cruzain activity in detergent-free assay. P25779. purified cruzain, Z-FR-AMC fluorescence, no detergent. Potency, µM, inactives show max response, negative = inhibition, hits mostly inhibitors. actives 2.3% (n = 200,000); active means well fitted curve in the direction sought with a large enough effect; inconclusive means small, poorly fitted or top-dose-only effect, or another doubt; inactive means no such curve, though single readings can be large; an effect the other way counts as inactive or inconclusive;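 further: plate controls were enzyme without inhibitor for no effect and buffer without enzyme for full effect; nearly all actives have a fitted effect of over 40% in size; top concentration of the series not given in the record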
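Detergent-free condition (0.00005% Triton X-100) in acetate buffer pH 5.5 with DTT. 1.5 nM enzyme and compound were pre-mixed 15 min, then 2 uM Z-FR-AMC substrate added; reaction progress from fluorescence change between first and third reads (60 s).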
2A StopGo – lowers the luciferase signal of an FMDV 2A StopGo reporter | human cells with a luciferase reporter of 2A StopGo recoding; control for the full effect not named in the record | Potency, µM (doses to about 57.9 µM), inactives show at the highest dose signal change, negative = less light | actives 1.2% (n = 410,000); active = well fitted falling curve with a large enough effect; inconclusive = small, poorly fitted or top-dose-only effect; inactive = no such curve, though single readings can be large or run the other way; tested in HEK293T cells; further: on the % scale 0 is the no-effect control and ±100 the full control effect; nearly all actives have a fitted effect of over 45% in size; luciferase light after 4 h
Lassa entry inh – inhibitors of Lassa virus binding or cell entry. Lassa virus pseudotype entry inhibition, cell reporter; control for the full effect not named in the record. Potency, µM (highest dose often 37.9 µM), for inactives: at the highest dose activity change, negative = inhibition, actives largely listed as inhibitors. actives 1.2% (n = 300,000); active means well fitted inhibition curve with a large enough effect; inconclusive means small, poorly fitted or top-dose-only effect, or effect the other way; inactive means flat fitted curve, though single readings scatter; tested in HEK293 cells; further: on the % scale 0 is the no-effect control and ±100 the full control effect; nearly all actives have a fitted effect of over 50% in size; luciferase read-out
Starred values were filed as active, the others as inactive; ? = inconclusive; / = no result given; & = joins results of further samples; [ ] = dose if it differs, or a comment. Unless noted, the call rests on the fitted dose curve; in most records, active means well fitted rising curve with a large enough effect; inconclusive means small, poorly fitted or top-dose-only effect; inactive means no such curve, though single readings can be large or run the other way. Potency means the concentration at half of the fitted maximal effect. No enrichment for hits. Share with any hit: about 4.6%.

SMILES | NS1 function inh | RE007 growth inh | Cruzain Triton | Marburg entry inh | SARS PLP yeast | Cruzain inh noDet | 2A StopGo | Lassa entry inh
Cc1cccc(S(=O)(=O)N2CCN(Cc3ccc4c(c3)OCO4)CC2)c1 | 7% | -7% | / | 12%[46.1 µM] | 3% | / | -7% | -1%[46.1 µM]
Cc1c(NS(=O)(=O)c2cc(C(=O)NC(C)c3ccccc3)ccc2Cl)c(=O)n(-c2ccccc2)n1C (stereo not drawn) | / | -11% | / | -7% | 2% | / | -5% | 3%
CN(c1ccccc1)S(=O)(=O)c1cccc(NS(=O)(=O)c2ccc(/C=C/C(=O)O)cc2)c1 | 5% | -1% | / | ? | 2% | / | 10% | 29%[46.1 µM]
CCOc1ccc(C(C(=O)NCCC(C)C)N(CCO)C(=O)c2snc(C(N)=O)c2N)cc1 (stereo not drawn) | 14% | 2% | / | -14%[46.1 µM] | 2% | / | 4% | -21%[46.1 µM]
COc1cccc(C2CC(=O)Nc3c2c(=O)nc2c(C)cccn32)c1OC (stereo not drawn) | / | / | 1.4% | / | / | 0% | 0% | 1%[46.1 µM]
O=[N+]([O-])c1cccc(-n2cc3ccc([N+](=O)[O-])cc3n2)c1 | / | -3% | / | -7% | -3% | / | 19% | -2%
COc1ccc(CNC(=O)Cn2cncn2)cc1OC | / | 23% | / | 13%[46.1 µM] | 0% | / | -21% | -8%
COc1ccc(-n2cnc3scc(-c4ccc(OC)c(OC)c4)c3c2=O)cc1 | -6% | 11% | / | / | -1% | / | -16% | /
CC(C)c1ccc(C(c2c(O)c3ccccc3oc2=O)c2c(O)c3ccccc3oc2=O)cc1 | -16% | -9% | -16% | / | / | 3% | 34%[activator] | /
Cc1cccc(NC(=O)NNC(=O)COc2ccc3ccccc3c2)c1 | 15% | -14% | / | / | -3% | / | 25% | /
O=C(O)c1cc([N+](=O)[O-])ccc1NCc1ccccc1Cl | / | 21% | / | 4% | -1% | / | 9% | 6%
COc1ccc(C2C(C(=O)NC(C)C)c3ccccc3C(=O)N2C)cc1OC (stereo not drawn) | 2% | 9% | 2.0% | ? | 0% | 2% | -2% | 1%
CCCN(CCC)Cc1c(C(=O)N/N=C/c2ccsc2)nnn1-c1nonc1N | -3% | -12% | / | 2%[46.1 µM] | -2% | / | 7% | 11%
O=c1c2ccccc2nc(-c2ccccc2)n1-c1ccncc1 | 5% | 5%[3.69 µM] | 0.3% | 1% | -1% | -2% | 3% | ?
CC(C)NC(=O)C(C)n1cccc1C(=O)c1ccccc1 (stereo not drawn) | 4% | -4% | -2.0% | -4% | 1% | 5% | -7% | 12%
CCOc1ccc(S(=O)(=O)N2CCC(C(=O)OC(C)C(=O)NC3CCCCC3C)CC2)cc1 (stereo not drawn) | / | 0% | / | -1% | 3% | / | -21% | -22%
COCCCNC(=O)Cn1c(=O)n(Cc2ccc(F)cc2)c(=O)c2sccc21 | -9% | -11% | / | 20% | -7% | / | -19% | -29%
C[C@@H](CSc1ccccc1)CN1CC[C@H](O)CCC1=O | 10% | 17% | / | / | 2% | / | 3% | /
COc1ccccc1CCNC(=O)C(=O)NCCC1CCCCN1S(=O)(=O)c1cccs1 (stereo not drawn) | / | 0% | / | ? | -4% | / | ? | ?
Cn1c(=O)c2c(nc(SCC(=O)O)n2Cc2cccc(C(F)(F)F)c2)n(C)c1=O | 3% | -8% | -4.9% | 0% | 6% | -1% | -11% | 7%
Cc1ccccc1-c1nc(CS(=O)(=O)CC(=O)NCCCN2CCCC2)c(C)o1 | 6% | -1% | -1.8% | / | 1% | 4% | 0% | /
Cn1cnnc1SCC(=O)N1CCC(Cc2ccccc2)CC1 | 7% | -6% | -0.6% | 0% | -5% | 17% | -17% | ?
O=S(=O)(Nc1cccc2cn[nH]c12)c1ccc(F)cc1 | 0% | -3% | 0.5% | -8%[46.1 µM] | 1% | -7% | 11% | 2%
COc1ccc(-c2nnc(N3CCOCC3)c3ccccc23)cc1 | 23% | -4% | / | / | 7% | / | -10% | /
CCC(C(=O)NCc1ccc(F)cc1)n1nc(C)n2c(cc3occc32)c1=O (stereo not drawn) | 11% | -5% | / | 11%[46.1 µM] | 6% | / | 6% | 20%[46.1 µM]
CC(=O)Nc1ccc(-c2csc(NC(=O)C3=COCCO3)n2)cc1 | / | -10% | / | -20% | 1% | / | 21% | -2%
CCN(Cc1cc(=O)n2ccsc2n1)Cc1nc2cc(OC)c(OC)cc2c(=O)[nH]1 | 2% | 9% | / | / | 0% | / | -2% | /
COC(=O)N/N=C/c1cccc(OC(=O)c2ccc3c(c2)OCO3)c1 | -12% | 0% | / | ? | -1% | / | 24% | -17%
CN(NC1OC(=O)c2ccccc21)c1ccc(C(F)(F)F)cc1[N+](=O)[O-] (stereo not drawn) | 2% | 2% | / | -2%[14.2 µM] | -1% | / | 10% | -7%
O=[N+]([O-])c1ccc(N2CCN(C(=S)NC3CCCCC3)CC2)cc1 | 7% | 5% | 1.5% | ? | -9% | 6% | ? | ?
Cn1c(=O)c2cn3c(c2n(C)c1=O)C(c1ccccc1)CC(c1ccccc1)=N3 (stereo not drawn) | -17% | -10% | -0.9% | ? | / | 1% | 17% | 26%
CC1CC(=O)N(C)c2ccc([N+](=O)[O-])cc2N1 (stereo not drawn) | 3% | 2% | -2.6% | -1% | -11% | -13% | 0% | -2%
COc1ccc(Sc2ccccc2CN(C)C)cc1OC | 1% | 1% | 1.6% | 4% | 5% | 3% | -13% | 21%
O=C(CCNS(=O)(=O)c1cccc2nsnc12)N1CCc2ccccc21 | -1% | 15% | -0.5% | ? | 3% | 1% | -2% | 2%
COc1cccc(C2/C(=C(\O)c3ccc4c(c3)OCCO4)C(=O)C(=O)N2CCN(C)C)c1 (stereo not drawn) | -4% | 12% | -1.5% | -10% | 2% | -1% | 14% | ?
Clc1ccc(-c2nnc(-c3cccnc3)o2)cc1 | -21% | -6% | / | -9% | -4% | / | 57%[activator] | 6%
Cc1cc(=O)oc(C)c1C(=O)NC12CC3CC(CC(C3)C1)C2 | 12% | 15% | 6.5% | 8% | 4% | 8% | -24% | 2%
CC(=O)c1c(CSc2ccccc2)oc2ccc(O)c(CN(C)C)c12 | -5% | -1% | / | ? | 0% | / | -11% | ?
O=S(=O)(NCC(c1ccc2c(c1)OCO2)N1CCOCC1)c1ccc(Cl)cc1 (stereo not drawn) | / | 2% | / | ? | -1% | / | 0% | 13%
Cn1cc(Br)c(C(=O)NNC(=O)Nc2ccccc2C(F)(F)F)n1 | 1% | 2% | / | 7% | -1% | / | -11% | 8%
O=C(c1ccccc1)C(O)C(c1ccccc1)N1CCOCC1 (stereo not drawn) | -2% | -2% | / | / | 0% | / | -5% | /
CCOC(=O)N1CCN(S(=O)(=O)c2cc(Br)cc3c2N(C(=O)CC)CC3)CC1 | -2% | -3% | -2.8% | 2%&2%[46.1 µM] | 1% | -2% | 3% | 10%
CSCC[C@H](NC(=O)[C@@H]1Cc2ccccc2CN1)C(=O)NC1CCCCC1 | -4% | -17% | / | 9%[46.1 µM] | 2% | / | -9% | -1%[46.1 µM]
CCOC(=O)c1[nH]c(C)c(C(=O)N2CCN(c3ccc(OC)cc3)CC2)c1C | / | 23% | / | 12%[46.1 µM] | 3% | / | 4% | 0%[46.1 µM]
COc1ccc(CCNC(=O)c2cc(C(C)C)on2)cc1OC | -5% | 2% | -0.4% | / | -1% | -3% | -7% | /
CC(=O)c1c(C)[nH]c(C(=O)COC(=O)CN(C)S(=O)(=O)c2ccc(Cl)cc2)c1C | -4% | -2% | -6.2% | -2% | 3% | 9% | -19% | 9%
Cc1ccc(-c2cc(C(=O)Nc3ccc(S(=O)(=O)Nc4ncccn4)cc3)[nH]n2)c(O)c1C | 6% | -15% | / | 0%[46.1 µM] | 0% | / | 19% | -7%
O=C(OCc1cnc(Cl)s1)c1c(F)cccc1F | -1% | -8% | / | -2% | 0% | / | 17% | 0%
Cc1ccc(/C=N/NC(=O)c2cccc([N+](=O)[O-])c2)o1 | -10% | -8% | -5.1% | -1% | -3% | 2% | -1% | 14%
O=P(C(=NCCO)NO)(N1CCOCC1)N1CCOCC1 | 1% | 2% | / | / | -1% | / | 1% | /

Entries listed so far that have fluorine:
SMILES | NS1 function inh | RE007 growth inh | Cruzain Triton | Marburg entry inh | SARS PLP yeast | Cruzain inh noDet | 2A StopGo | Lassa entry inh
COCCCNC(=O)Cn1c(=O)n(Cc2ccc(F)cc2)c(=O)c2sccc21 | -9% | -11% | / | 20% | -7% | / | -19% | -29%
Cn1c(=O)c2c(nc(SCC(=O)O)n2Cc2cccc(C(F)(F)F)c2)n(C)c1=O | 3% | -8% | -4.9% | 0% | 6% | -1% | -11% | 7%
O=S(=O)(Nc1cccc2cn[nH]c12)c1ccc(F)cc1 | 0% | -3% | 0.5% | -8%[46.1 µM] | 1% | -7% | 11% | 2%
CCC(C(=O)NCc1ccc(F)cc1)n1nc(C)n2c(cc3occc32)c1=O (stereo not drawn) | 11% | -5% | / | 11%[46.1 µM] | 6% | / | 6% | 20%[46.1 µM]
CN(NC1OC(=O)c2ccccc21)c1ccc(C(F)(F)F)cc1[N+](=O)[O-] (stereo not drawn) | 2% | 2% | / | -2%[14.2 µM] | -1% | / | 10% | -7%
Cn1cc(Br)c(C(=O)NNC(=O)Nc2ccccc2C(F)(F)F)n1 | 1% | 2% | / | 7% | -1% | / | -11% | 8%
O=C(OCc1cnc(Cl)s1)c1c(F)cccc1F | -1% | -8% | / | -2% | 0% | / | 17% | 0%
